# Source: PubChem (Broad Institute)
# Vaccinia inh: blocks a specific stage of Vaccinia orthopoxvirus infection, primary screen, cell-based, single point. Vaccinia-infected cells, mCherry/Venus stage reporter fluorescence; hits give low values; some inactives read as strong as hits. activity change (mCherry), % (concentration not given with the values). hit rate 0.01% among 89,000;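 active = mCherry past -33% and 40 or more points under the early reporter, replicates agreeing; inconclusive = past -33% without that gap or agreement; tested in A549 cells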;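 also: scaled between vehicle wells and reference inhibitor wells; 23 nL library stock went into each well; one replicate is shown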
# Vaccinia inh Venus: also measured in Vaccinia inh; calls as there; activity change (Venus), %; measured here: Venus reporter, other viral stage;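 negative = less Venus signal; first of two replicates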
# The depositor's hits bear a star; ? = inconclusive; nt = not tested or not shown. A portion of the library; the hit share may differ from the screen's.
# Below each SMILES – Vaccinia inh	Vaccinia inh Venus
C[C@H]1CN([C@@H](C)CO)C(=O)c2cccc(NC(=O)Nc3ccc(F)cc3)c2O[C@@H]1CN(C)Cc1ccc(C(=O)Nc2ccccc2N)cc1
 : -10	-5
CCC(=O)N1CC2(CN(C(=O)NC(C)C)C2)c2c(n(C)c3cc(OC)ccc23)[C@H]1CO
 : 14	6
C/C=C/c1ccc([C@@H]2[C@@H](CO)N3C(=O)CN(Cc4ccc(F)cc4)C[C@H]23)cc1
 : 1	4
C[C@H]1CN([C@@H](C)CO)C(=O)c2cc(C#Cc3ccccn3)cnc2O[C@H]1CN(C)C(=O)CCN1CCCCC1
 : 28	10
C[C@@H]1CN([C@H](C)CO)C(=O)Cc2cc(NC(=O)Nc3ccc(C(F)(F)F)cc3)ccc2O[C@H]1CN(C)C(=O)Nc1cccc2ccccc12
 : 6	17
COC(=O)[C@@H]1[C@@H](CO)[C@@H]2Cn3c(ccc(-c4ccccc4)c3=O)[C@H]1N2CC1CCOCC1
 : 1	3
C[C@@H]1CN([C@@H](C)CO)C(=O)Cc2cc(NC(=O)NC3CCCCC3)ccc2O[C@@H]1CN(C)Cc1ccccc1
 : -33	-21
C[C@@H]1CCCCO[C@@H](CN(C)C(=O)Nc2ccc(F)cc2)[C@@H](C)CN([C@H](C)CO)C(=O)c2cc(NC(=O)Nc3ccc4c(c3)OCO4)ccc2O1
 : 9	1
CCCC#Cc1ccc([C@H]2[C@H]3CN(CC4CCOCC4)CCCCN3[C@H]2CO)cc1
 : -9	-9
O=C1N[C@@H](c2ccccc2)COCc2cn(nn2)CC[C@@H]1Cc1ccccc1
 : 16	9
CCC(=O)N1C[C@@H](C)[C@@H](OC)CN(C)C(=O)c2ccc(NC(=O)C3CC3)cc2OC[C@H]1C
 : 7	4
CO[C@H]1CN(C)C(=O)c2cc(NC(=O)C3CCC3)ccc2OC[C@@H](C)N(Cc2cccnc2)C[C@H]1C
 : -9	-16
Cc1ccc(S(=O)(=O)N[C@H]2CC[C@@H](CCn3cc(C4CCCC4)nn3)O[C@@H]2CO)cc1
 : ?	nt
CCC(=O)N(C)C[C@H]1Oc2ncc(C#Cc3ccccc3)cc2C(=O)N([C@H](C)CO)C[C@@H]1C
 : 6	-5
C[C@@H]1CN([C@H](C)CO)C(=O)CCCn2nncc2CO[C@H]1CN(C)C(=O)Nc1cccc(F)c1
 : 9	19
C[C@@H]1CN([C@@H](C)CO)C(=O)Cc2cc(NS(=O)(=O)c3cn(C)cn3)ccc2O[C@H]1CN(C)C(=O)Nc1ccc2c(c1)OCO2
 : 16	12
O=C(O)C[C@@H]1CC[C@H](NC(=O)CCN2CCCCC2)[C@H](CO)O1
 : 20	16
C[C@@H]1CN([C@H](C)CO)S(=O)(=O)c2ccc(-c3ccccc3F)cc2O[C@H]1CN(C)Cc1ccncc1
 : ?	nt
O=C(C[C@@H]1C=C[C@H](NS(=O)(=O)c2ccc(F)cc2)[C@@H](CO)O1)N1CCN(c2ccccc2)CC1
 : 5	11
CC(C)CC#Cc1ccc2c(c1)O[C@H](CN(C)C(=O)c1ccccc1)[C@@H](C)CN([C@@H](C)CO)S2(=O)=O
 : ?	nt
CCC(=O)Nc1ccc2c(c1)C(=O)N(C)[C@@H]1CC[C@@H](CC(=O)NCc3ccc(OC)cc3)O[C@H]1CO2
 : -1	3
CC(C)NC(=O)Nc1ccc2c(c1)CC(=O)N([C@H](C)CO)C[C@@H](C)[C@H](CN(C)Cc1ccc(C(=O)Nc3ccccc3N)cc1)O2
 : 22	11
CN1C(=O)c2cc(NC(=O)Cc3cccs3)ccc2OC[C@@H]2O[C@H](CC(=O)N[C@H]3CCN(Cc4ccccc4)C3)CC[C@H]21
 : -10	1
O=C(NCC[C@H]1CC[C@H](NC(=O)C2CCC2)[C@@H](CO)O1)Nc1ccc(Cl)cc1
 : -10	2
Cc1noc(C)c1S(=O)(=O)Nc1ccc2c(c1)C(=O)N([C@@H](C)CO)C[C@@H](C)[C@@H](CN(C)C(=O)Nc1ccccc1)OCCCC[C@H](C)O2
 : -3	0
C[C@@H]1CN([C@H](C)CO)C(=O)c2cc(Br)cnc2O[C@H]1CN(C)C(=O)c1ccccc1F
 : 21	9
CCNC(=O)C[C@@H]1C=C[C@@H](NS(=O)(=O)c2ccc(C)cc2)[C@H](CO)O1
 : 8	11
COCCNC(=O)C[C@H]1CC[C@H]2[C@@H](COc3ccc(NC(=O)Nc4ccccc4)cc3C(=O)N2C)O1
 : 2	0
COc1ccc(S(=O)(=O)Nc2ccc3c(c2)C(=O)N([C@@H](C)CO)C[C@@H](C)[C@@H](CN(C)C)O3)cc1
 : 10	11
COc1ccccc1S(=O)(=O)N[C@H]1CC[C@@H](CC(=O)NCc2cccc(F)c2)O[C@H]1CO
 : -7	-8
C[C@H](NC(=O)C[C@H]1CC[C@@H]2[C@H](COC[C@H](O)CN2C(=O)Nc2cccc(F)c2)O1)c1ccccc1
 : -14	-5
COc1ccc(S(=O)(=O)Nc2ccc3c(c2)CC(=O)N([C@H](C)CO)C[C@@H](C)[C@H](CN(C)S(=O)(=O)c2ccc(OC)cc2)O3)cc1
 : 8	13
C[C@H](CO)N1C[C@H](C)[C@H](CN(C)C(=O)Cc2ccncc2)Oc2ncc(C#CCN(C)C)cc2C1=O
 : 11	13
CN1[C@H](C(=O)NC2Cc3ccccc3C2)[C@@H](CO)[C@@H]2Cn3c(ccc(-c4cccnc4)c3=O)[C@@H]21
 : 0	3
N#C[C@H]1[C@@H](c2ccc(-c3cccc(F)c3)cc2)[C@H](CO)N1c1nc(-c2ccccc2)cs1
 : 1	3
CN1CCN(C(=O)C[C@@H]2CC[C@H](NS(=O)(=O)c3cccc(F)c3)[C@H](CO)O2)CC1
 : 11	5
O=C(C[C@H]1C[C@@H]2c3cc(NC(=O)C4CCC4)ccc3O[C@@H]2[C@H](CO)O1)NCc1ccc(Cl)cc1
 : 13	7
C[C@@H]1CN([C@H](C)CO)C(=O)c2cc(-c3ccccc3)cnc2O[C@H]1CN(C)C(=O)Nc1ccc2c(c1)OCO2
 : -3	-6
COc1ccccc1C#Cc1ccc([C@@H]2[C@@H](C#N)N(C(=O)C3CCCC3)[C@H]2CO)cc1
 : -35	-23
C[C@@H]1CN([C@@H](C)CO)C(=O)c2cc(NC(=O)CCCN(C)C)ccc2O[C@@H](C)CCCCO[C@H]1CN(C)CC1CCCCC1
 : -10	0
O=C(C[C@@H]1C[C@H]2c3cc(NC(=O)C4CCOCC4)ccc3O[C@H]2[C@H](CO)O1)NCc1cc(F)ccc1F
 : 16	8
CO[C@H]1CN(C)C(=O)c2cc(NS(C)(=O)=O)ccc2OC[C@H](C)N(C(=O)C2CCC2)C[C@H]1C
 : 10	5
CCNC(=O)C[C@@H]1CC[C@@H]2[C@@H](COc3ccc(NS(=O)(=O)c4ccccc4C)cc3C(=O)N2C)O1
 : 11	8
CCc1cnc(N2[C@@H](C#N)[C@@H](c3ccc(C#Cc4ccccc4F)cc3)[C@@H]2CO)s1
 : -6	-9
C[C@@H]1CCCCO[C@@H](CN(C)S(=O)(=O)c2cccs2)[C@@H](C)CN([C@H](C)CO)C(=O)c2cc(NS(=O)(=O)c3ccccc3)ccc2O1
 : 27	13
COc1ccc2c3c([nH]c2c1)[C@@H](CO)N(S(C)(=O)=O)CC31CCN(CC2CCCCC2)CC1
 : -25	-18
CCCNC(=O)N1[C@H](C#N)[C@@H](c2ccccc2C2=CCCCC2)[C@@H]1CO
 : -4	3
COc1ccc(CN2CC3(C2)CN(C(=O)CN(C)C)[C@@H](CO)c2[nH]c4cc(OC)ccc4c23)cc1
 : -30	-21
O=C1O[C@@H](c2ccccc2)[C@@H](c2ccccc2)N2[C@@H](c3ccccc3OCCO)[C@]3(C(=O)Nc4ccc(C#CCCO)cc43)[C@@H](C(=O)N3CCN(c4ncccn4)CC3)[C@H]12
 : 8	7
C[C@H](CO)N1C[C@H](C)[C@@H](CN(C)S(=O)(=O)c2ccccc2)Oc2ccc(NC(=O)Nc3ccc4c(c3)OCO4)cc2CC1=O
 : 10	0

# One compound at a time (already shown):
# CCNC(=O)C[C@@H]1CC[C@@H]2[C@@H](COc3ccc(NS(=O)(=O)c4ccccc4C)cc3C(=O)N2C)O1 is entered as Vaccinia inh: 11; Vaccinia inh Venus: 8
# COc1ccc2c3c([nH]c2c1)[C@@H](CO)N(S(C)(=O)=O)CC31CCN(CC2CCCCC2)CC1 is entered as Vaccinia inh: -25; Vaccinia inh Venus: -18
# O=C(C[C@@H]1C[C@H]2c3cc(NC(=O)C4CCOCC4)ccc3O[C@H]2[C@H](CO)O1)NCc1cc(F)ccc1F is entered as Vaccinia inh: 16; Vaccinia inh Venus: 8

# Carrying on.
# Below each SMILES – Vaccinia inh	Vaccinia inh Venus
C/C=C/c1ccc2c(c1)O[C@H](CN(C)CC1CCCC1)[C@@H](C)CN([C@H](C)CO)S2(=O)=O
 : -13	-10
COc1ccc2c3c(n(C)c2c1)[C@H](CO)N(C(=O)NC1CCCC1)CC31CCN(C)CC1
 : -9	-11
CS(=O)(=O)Nc1ccc2c(c1)[C@@H]1C[C@H](CC(=O)NCCc3ccccc3)O[C@@H](CO)[C@@H]1O2
 : 4	9
O=C(O)C[C@H]1C=C[C@H](NC(=O)c2ccccc2F)[C@@H](CO)O1
 : 0	4
COC(=O)C[C@@H]1C[C@H]2c3cc(NC(=O)NC4CCCC4)ccc3O[C@H]2[C@H](CO)O1
 : 5	-1
Cc1noc(C)c1NC(=O)Nc1ccc2c(c1)C(=O)N([C@@H](C)CO)C[C@H](C)[C@H](CN(C)C(=O)CCCN(C)C)OCCCC[C@H](C)O2
 : 25	15
O=C(C[C@@H]1CC[C@@H](NC(=O)C2CCC2)[C@H](CO)O1)Nc1nccs1
 : 14	17
COc1ccc2c3c(n(C)c2c1)[C@@H](CO)N(C(=O)c1cccc(F)c1)CC31CN(C(=O)c2cccc(F)c2)C1
 : ?	nt
C[C@H](CO)N1C[C@H](C)[C@H](CN(C)Cc2cccc(C(=O)O)c2)Oc2ncc(C#CCc3ccccc3)cc2C1=O
 : 10	4
COc1cccc(S(=O)(=O)N(C)C[C@@H]2Oc3cc(C#CCN(C)C)ccc3S(=O)(=O)N([C@@H](C)CO)C[C@@H]2C)c1
 : -4	-8
COc1cccc(C#Cc2ccc([C@@H]3[C@H]4CN(C(C)=O)CC(=O)N4[C@H]3CO)cc2)c1
 : -3	0
C[C@@H]1CN([C@H](C)CO)C(=O)c2cc(NC(=O)Nc3ccc(F)cc3)ccc2O[C@H]1CN(C)S(C)(=O)=O
 : 11	1
C[C@@H]1CN([C@H](C)CO)C(=O)c2cc(NS(=O)(=O)c3cccs3)ccc2O[C@@H](C)CCCCO[C@@H]1CN(C)S(C)(=O)=O
 : 19	12
O=C(NC[C@@H]1CC[C@@H]2[C@@H](CN2C(=O)CN2CCOCC2)O1)NC1CCCCC1
 : 8	0
O=C1CN(S(=O)(=O)Cc2ccccc2)C[C@H]2[C@@H](c3ccc(C#Cc4ccc(F)cc4)cc3)[C@@H](CO)N12
 : ?	nt
C[C@H]1CCCCO[C@@H](CN(C)S(=O)(=O)c2ccc(Cl)cc2)[C@@H](C)CN([C@@H](C)CO)C(=O)c2cc(NS(=O)(=O)c3ccccc3)ccc2O1
 : ?	nt
COc1ccccc1S(=O)(=O)N1[C@@H]2CNC[C@H]1[C@H]2c1ccc(-c2ccccc2C)cc1
 : -1	5
C[C@H]1CCCCO[C@@H](CN(C)CC2CCCCC2)[C@@H](C)CN([C@@H](C)CO)C(=O)c2cc(NS(=O)(=O)c3ccc(F)cc3)ccc2O1
 : -17	-16
C[C@@H]1CN([C@H](C)CO)C(=O)c2cc(-c3ccncc3)cnc2O[C@@H]1CN(C)S(=O)(=O)c1ccc(F)cc1
 : 6	7
CO[C@@H]1CN(C)C(=O)c2ccc(NC(=O)NC(C)C)cc2OC[C@H](C)N(Cc2ccccc2)C[C@H]1C
 : -25	-19
CNC[C@@H]1Oc2cc(-c3ccc(C(=O)N(C)C)cc3)ccc2S(=O)(=O)N([C@@H](C)CO)C[C@H]1C
 : 14	6
CN(C)C(=O)C[C@@H]1CC[C@@H]2[C@H](COC[C@H](O)CN2C(=O)c2ccncc2)O1
 : -13	-10
CN1C(=O)c2cc(NC(=O)C3CCC3)ccc2OC[C@H]2O[C@@H](CC(=O)NCc3ccccc3F)CC[C@H]21
 : -2	0
Cc1ccc(S(=O)(=O)N[C@@H]2CC[C@@H](CCn3cc(-c4cccc(F)c4)nn3)O[C@H]2CO)cc1
 : -31	-24
COc1ccc(CNC(=O)C[C@H]2CC[C@@H](NC(=O)Nc3ccc4c(c3)OCO4)[C@@H](CO)O2)cc1
 : -1	1
CN(C)CC(=O)Nc1ccc2c(c1)[C@H]1C[C@H](CC(=O)N3CCCCC3)O[C@H](CO)[C@H]1O2
 : 4	5
O=C(c1ccncc1)N1C[C@@H]2[C@H](c3ccccc31)[C@@H](CO)N2C(=O)c1ccncc1
 : 7	7
C[C@H]1CN([C@@H](C)CO)C(=O)c2cc(NC(=O)C3CCCCC3)ccc2O[C@@H]1CN(C)C(=O)Nc1ccc(C(F)(F)F)cc1
 : 7	9
CO[C@H]1CN(C)C(=O)c2ccc(NC(=O)Nc3cccc(Cl)c3)cc2OC[C@@H](C)NC[C@H]1C
 : 3	7
COC(=O)[C@H]1[C@H](CO)[C@H]2Cn3c(ccc(-c4cncnc4)c3=O)[C@H]2N1C(=O)C1CCC1
 : 5	6
C[C@H](CO)N1C[C@H](C)[C@H](CN(C)C(=O)CC2CC2)Oc2cc(C3=CCCC3)ccc2S1(=O)=O
 : 5	4
